Screens: PubChem BioAssay, several laboratories
RGS16-Gao HTS: modulators of RGS16 binding to Galphao, primary screen, biochemical, human proteins, multiplexed bead flow cytometry. Regulator of G-protein signaling 16 (Homo sapiens) + Guanine nucleotide-binding protein …. bead-based flow cytometry RGS16-Galphao binding, fluorescence; actives lie on both sides. binding response (% of control), % at 10 µM. actives 0.38% (n = 220,000). AID 1441, 2008;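 active = below 25% or above 175%, edge rows of some plates excepted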;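 also: Galphao activated by GDP with aluminum fluoride before binding; 100% = wells without compound and 0% = beads without RGS; some results beyond the cut were filed as inactive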
Target sequence (O15492 whole entry, looked up): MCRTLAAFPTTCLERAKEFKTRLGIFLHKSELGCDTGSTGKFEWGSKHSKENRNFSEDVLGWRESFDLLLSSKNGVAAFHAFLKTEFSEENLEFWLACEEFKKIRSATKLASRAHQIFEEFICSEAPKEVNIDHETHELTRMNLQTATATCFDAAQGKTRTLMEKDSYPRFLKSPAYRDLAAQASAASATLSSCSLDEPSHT
Target sequence (P09471 whole entry, looked up): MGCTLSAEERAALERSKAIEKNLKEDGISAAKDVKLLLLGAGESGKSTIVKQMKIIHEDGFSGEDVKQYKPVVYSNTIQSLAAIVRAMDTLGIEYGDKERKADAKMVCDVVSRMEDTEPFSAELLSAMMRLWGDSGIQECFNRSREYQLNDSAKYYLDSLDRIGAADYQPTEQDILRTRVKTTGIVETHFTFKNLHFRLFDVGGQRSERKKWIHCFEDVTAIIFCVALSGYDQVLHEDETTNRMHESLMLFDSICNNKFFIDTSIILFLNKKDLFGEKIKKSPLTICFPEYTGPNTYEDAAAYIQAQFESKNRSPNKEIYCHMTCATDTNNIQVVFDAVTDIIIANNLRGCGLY
GALR2 agonist: GALR2 receptor agonists, primary screen, cell-based | GALR2-expressing cells, agonist activation read-out | activation, %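 (tested at 5 µM)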 | actives 0.48% (n = 140,000) | AID 803, 2007;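 active = above mean plus 3 SD of all compounds, about 5% in these data, not always enough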;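 also: 0% = vehicle buffer wells and 100% = reference agonist at full effect; tested in CHO reporter cells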
Target sequence (O43603 whole entry, looked up): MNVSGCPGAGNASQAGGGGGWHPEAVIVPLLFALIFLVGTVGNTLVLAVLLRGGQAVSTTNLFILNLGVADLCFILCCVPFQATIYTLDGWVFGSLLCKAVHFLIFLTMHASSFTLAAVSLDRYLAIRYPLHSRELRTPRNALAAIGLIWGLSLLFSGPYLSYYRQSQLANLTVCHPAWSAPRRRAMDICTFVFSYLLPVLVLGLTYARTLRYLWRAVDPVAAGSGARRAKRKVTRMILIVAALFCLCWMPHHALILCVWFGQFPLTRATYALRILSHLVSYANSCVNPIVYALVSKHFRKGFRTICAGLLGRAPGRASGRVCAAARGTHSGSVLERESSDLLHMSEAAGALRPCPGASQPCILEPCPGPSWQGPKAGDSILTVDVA
HSV replic up: enhancers of HSV replication in host cells, fold increase, host cell viability; maximum fold increase; actives 0.005% (n = 220,000); AID 1956, 2009; HSV replication augmentation in cells;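 active = peak rise of 1.5-fold or more in the series; tested in PC3 cells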;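 also: first round at 10 µM; read as green reporter fluorescence; hits show the peak of a series up to 25 µM; 1 = signal of infected wells without compound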
PKD1 inh: inhibitors of human PKD1 kinase, biochemical, fluorescence polarization; inhibition, %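 (about 10 µM by stock and volumes)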; AID 797, 2007; PKD1 kinase fluorescence polarization assay; Serine/threonine-protein kinase D1 (Homo sapiens), Q15139; actives 0.056% (n = 200,000);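 active = inhibition of 50% or more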;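 also: controls were vehicle for no effect and a reference inhibitor for full effect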
Insulin prom inh: inhibitors of insulin promoter-driven GFP, primary screen, imaging, TRM-6 cells (human fetal islet line), eGFP reporter, cell count | actives 0.9% (n = 130,000) | reporter expression induced with tamoxifen | inhibition, % at 2 µM;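 active = inhibition above the mean plus 3 SD, with well images judged a real hit on visual review, cut at about 60% in these data, passing the limit was not always enough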
Insulin prom inh cell count: second read-out of Insulin prom inh, no call of its own (marks repeat the call); normalized cell count, %; measured here: cell count, toxicity; reference of the scale not given here;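 cells exposed to compound for 48 h; stained nuclei by imaging scaled within each plate; lower means fewer cells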
HSV replic up primary fold: also measured in HSV replic up; calls as there; fold increase; compound at 10 µM; measured here: primary screen fold increase 10 uM; tested in PC3 cells;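 GFP signal in the first replicate; 1 = infected wells without compound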
Active calls of the source: *; i = inactive; · = no result given.

Values run as follows: Insulin prom inh cell count | HSV replic up | Insulin prom inh | RGS16-Gao HTS | GALR2 agonist | HSV replic up primary fold | PKD1 inh
CCn1c(CC(=O)Nc2cccc(OC)c2)nnc1SCC(=O)N1CCN(c2ccccc2)CC1
→ 113 | i | 6 | 98 | -1.7 | 0.99 | 2
CCOc1ccc(S(=O)(=O)n2cc(-c3ccc(F)cc3)c(N)n2)cc1
→ 108* | i | 87* | 107 | -2.1 | 0.92 | 1
O=C(OC(C(=O)NCC1CCCO1)c1ccccn1)c1cccs1 (configuration not stated)
→ 143 | i | -27 | 86 | -1.2 | 0.84 | 16
CCOc1ccc(CN2CCN(Cc3cnc(-c4ccccc4)s3)CC2CCO)cc1 (configuration not stated)
→ · | i | · | 101 | · | 0.91 | -5
Cc1ncc([N+](=O)[O-])n1CCOC(=O)C12CC3CC(CC(C3)C1)C2
→ · | i | · | 103 | · | 1.1 | -6
CCOc1ccc2nc(NC(=O)c3ccccn3)sc2c1
→ · | i | · | 97 | · | 0.64 | ·
CC1CN(Cc2nc3c(c(=O)n(C)c(=O)n3C)n2Cc2ccccc2)CC(C)O1 (configuration not stated)
→ · | i | · | 102 | -3.1 | 1.1 | 15
O=C(NCc1ccccn1)c1ccc(Br)s1
→ 50 | i | -309 | 89 | -1.5 | 1.1 | -2
O=C1/C(=C/c2ccccc2)CCC1C1CCCC1 (configuration not stated)
→ 112 | i | 25 | 94 | -0.7 | 0.99 | 10
COC(=O)c1ccc(NC(=O)C23CC4CC(C2)CC(n2cnc(Cl)n2)(C4)C3)cc1
→ 79 | i | 33 | 99 | -4.9 | 0.8 | -7
O=C(COC(=O)c1ccc[nH]c1=O)NC1CCCCCC1
→ · | i | · | 104 | · | 0.93 | 0
N#Cc1c(-c2ccco2)nc(SCC(=O)Nc2ccc(S(N)(=O)=O)cc2)[nH]c1=O
→ 99 | · | -3 | 109 | -3.9 | · | -7
COc1ccc(C(=O)/C=C/c2ccc(N3CCCCC3)c([N+](=O)[O-])c2)cc1
→ · | · | · | 105 | -2.0 | · | -2
CCSc1nnc(NC(=O)C2CC2c2ccccc2)s1 (configuration not stated)
→ 107 | i | -5 | 102 | -1.0 | 0.98 | -11
C=CCOC(=O)C(C#N)c1nc2ccccc2nc1N1CCCC1 (configuration not stated)
→ 84 | i | 12 | 100 | -1.1 | 1.1 | 13
COCCN=C1Sc2nc3cc4c(cc3cc2CN1CC1CCCO1)OCO4 (configuration not stated)
→ 77 | i | 41 | 99 | · | 0.87 | 10
O=C(NCc1ccccn1)C(=O)NN=C1CCCCCCCCCCC1
→ · | i | · | 115 | · | 0.9 | 0
CCOC(=O)Cc1csc(NC(=O)CS(=O)(=O)Cc2ccccc2)n1
→ 108 | i | 8 | 101 | -2.4 | 1 | -5
CC1(C(=O)Nc2nnc(C(C)(C)C)s2)Cc2ccccc2C(=O)O1 (configuration not stated)
→ 36 | i | -66 | 101 | -0.9 | 1.1 | 0
Cc1oc(S(=O)(=O)N2CCCCC2)cc1NC(=O)Nc1ccccc1
→ · | i | · | 96 | · | 0.96 | ·
O=C(N/N=C/c1ccc(-c2cccc([N+](=O)[O-])c2)o1)[C@H]1C[C@@H]1c1ccccc1
→ 162 | i | -5 | 103 | -1.0 | 0.97 | 8
CC1CC(C)(C)Nc2ccc(OC(=O)c3ccco3)cc21 (configuration not stated)
→ 104 | i | -14 | 99 | 0.3 | 1.2 | 2
CC(C)OC(=O)CSc1nc(Cc2cccs2)nc2ccccc12
→ · | i | · | 107 | · | 0.97 | -10
CCOc1ccc(NC(=O)c2ccc(NC(=O)CSc3nc4ccccc4c(=O)[nH]3)cc2)cc1
→ · | i | · | 98 | · | 0.91 | -2
CCOc1ccc(S(=O)(=O)NCc2ccc(C)cc2)c2cccnc12
→ 90 | i | 21 | 103 | -2.6 | 0.91 | -6
CC(=O)NC1C(Oc2ccc(C)cc2)OC2COC(c3ccco3)OC2C1O (configuration not stated)
→ 142 | i | -14 | 110 | -1.2 | 0.9 | -9
O=C(COc1ccc(N2CC(C(=O)O)CC2=O)cc1)Nc1cccc(C(F)(F)F)c1 (configuration not stated)
→ 68 | i | -312 | 99 | -1.4 | 0.82 | -2
C=CCNC(=O)c1onc(CSc2ccccn2)c1C(=O)NCC=C
→ · | i | · | 101 | · | 0.69 | ·
COc1c(F)c(F)c(C(=O)O)c(Nc2cccc(C)c2)c1F
→ 164 | i | 8 | 105 | · | 0.92 | -5
COc1ccc(CCN2C(=O)CC(N3CCN(C/C=C/c4ccccc4)CC3)C2=O)cc1OC (configuration not stated)
→ · | i | · | 96 | · | 1.1 | ·
CC1(C)CC(=O)c2cnc3c(C#N)cnn3c2C1
→ 125 | i | 14 | 104 | · | 0.75 | 4
COC(=O)c1ccc(N=Cc2c(-c3ccccc3)[nH][nH]c2=O)cc1
→ · | i | · | 102 | · | 1 | -1
CCc1sc(C(C2C(=O)CC(C)(C)CC2=O)C2C(=O)CC(C)(C)CC2=O)cc1[N+](=O)[O-]
→ · | i | · | 93 | · | 1 | -8
Cc1ccc(NC(=O)COC(=O)c2cc(Cl)ccc2Cl)c(Br)c1
→ 97 | i | -16 | 101 | 0.4 | 0.86 | 1
Cc1sc2ncnc(SCC(=O)N3CCN(C(=O)c4ccco4)CC3)c2c1C
→ · | i | · | 101 | -0.8 | 0.79 | -11
Cc1cccc(NC(=O)c2c(O)c3cccc4c3n(c2=O)CCC4)n1
→ 143 | i | 45 | 97 | -1.9 | 0.86 | -10
Clc1ccc(C2CC(c3cccs3)n3ncnc3N2)c(Cl)c1 (configuration not stated)
→ · | · | · | 99 | · | · | -9
S=C1Cc2ccccc2N1
→ · | i | · | 97 | · | 0.68 | ·
COC(=O)CN1C(CN2CCOCC2)=Nc2ccc(Br)cc2C1c1ccccc1 (configuration not stated)
→ · | i | · | 101 | · | 0.82 | ·
COc1ccc(-n2c(SCC(=O)N3CCCCC3C)nnc2-c2cccnc2)cc1 (configuration not stated)
→ 46 | i | -18 | 99 | 1.8 | 0.91 | -1

Some of the entries so far, as labelled records:
CCc1sc(C(C2C(=O)CC(C)(C)CC2=O)C2C(=O)CC(C)(C)CC2=O)cc1[N+](=O)[O-]
- Insulin prom inh cell count: ·
- HSV replic up: i
- Insulin prom inh: ·
- RGS16-Gao HTS: 93
- GALR2 agonist: ·
- HSV replic up primary fold: 1
- PKD1 inh: -8
Cc1ccc(NC(=O)COC(=O)c2cc(Cl)ccc2Cl)c(Br)c1
- Insulin prom inh cell count: 97
- HSV replic up: i
- Insulin prom inh: -16
- RGS16-Gao HTS: 101
- GALR2 agonist: 0.4
- HSV replic up primary fold: 0.86
- PKD1 inh: 1
Cc1sc2ncnc(SCC(=O)N3CCN(C(=O)c4ccco4)CC3)c2c1C
- Insulin prom inh cell count: ·
- HSV replic up: i
- Insulin prom inh: ·
- RGS16-Gao HTS: 101
- GALR2 agonist: -0.8
- HSV replic up primary fold: 0.79
- PKD1 inh: -11

Next records follow:
Values run as follows: Insulin prom inh cell count | HSV replic up | Insulin prom inh | RGS16-Gao HTS | GALR2 agonist | HSV replic up primary fold | PKD1 inh
Cn1c(Cn2c(=O)sc3ccccc32)nnc1SCC(=O)Nc1ccc(Cl)cc1
→ · | i | · | 98 | -2.0 | 1.1 | -8
Cc1oc2cc(O)cc(C)c2c(=O)c1-c1cnn(-c2ccccc2)c1
→ 100 | i | -59 | 103 | -1.2 | 1 | 8
Cc1nn(C)c(C(=O)NNC(=S)NC2CCCCC2)c1Cl
→ · | i | · | 101 | 0.1 | 0.9 | 1
O=C(O)COc1ccc(S(=O)(=O)c2ccc(OCC(=O)O)cc2)cc1
→ · | · | · | 47 | -0.9 | · | -1
COc1ccccc1C1CCN(C(=S)Nc2ccc(Br)cc2)CC1
→ · | i | · | 98 | · | 0.99 | ·
O[C@@H]1C2CCCC1[C@]1(O)CCCCC1C2 (some centres not stated)
→ · | i | · | 113 | -0.7 | 0.96 | -2
Cc1nnn(C23CC4CC(CC(CC(=O)Nc5ccc(C)c(C)c5)(C4)C2)C3)n1
→ 121 | i | 31 | 104 | -1.0 | 1 | 1
N#C/C(=C\Nc1ccccn1)S(=O)(=O)c1ccc(Cl)cc1
→ · | i | · | 104 | · | 1.1 | ·
CCOc1ccc(NC(=O)CS(=O)(=O)c2cn(CC)c3ccccc23)cc1
→ · | i | · | 74 | -1.6 | 0.95 | -9
O=C(C1CCN(c2nnc(-n3cccc3)s2)CC1)N1CCc2ccccc2C1
→ · | i | · | 79 | -0.2 | 0.82 | -4
O=C(C1CC1)N1CCc2cc(S(=O)(=O)N3CCCc4ccccc43)ccc21
→ 85 | i | -25 | 114 | -3.1 | 0.75 | 2
CC(C)(C)C(=O)NCCN1C(=O)S/C(=C\c2ccc([N+](=O)[O-])cc2)C1=O
→ 61 | i | -1 | 120 | -1.0 | 0.85 | 3
CCOc1cc(/C=N/Nc2nc(N3CCCC3)nc(N3CCCC3)n2)ccc1O
→ 156 | i | 35 | 106 | -0.6 | 0.97 | 1
Cn1cc(CNC(=O)COc2ccc(Cl)cc2Cl)cn1
→ 78 | i | -27 | 102 | -1.3 | 0.76 | 4
Cc1sc(NC(=S)NC(=O)c2cccs2)nc1-c1ccc(C(C)C)cc1
→ · | i | · | 66 | -2.2 | 0.81 | -5
COc1ccc(/C=C/C(=O)Nc2sc3c(c2C(=O)NCc2cccnc2)CCCC3)cc1
→ 145 | i | 11 | 94 | -1.0 | 0.95 | -11
CCOC(=O)CSc1nc2ccccc2c(=O)n1CCC(=O)NCCc1ccc(OC)c(OC)c1
→ 123 | i | -19 | 83 | -5.8 | 0.96 | 6
Cc1ccc2sc(NNC(=O)c3ccc4c(c3)OCCO4)nc2c1C
→ 91 | · | 22 | 107 | -2.2 | · | 0
CCC(c1nnnn1C1CCCC1)N(Cc1cccs1)Cc1cc2cc(C)ccc2[nH]c1=O (configuration not stated)
→ · | i | · | 104 | -0.7 | 0.9 | -9
Cc1cc(NC(=O)CN2C(=O)NC(C)(c3ccc(OC(F)F)cc3)C2=O)no1 (configuration not stated)
→ 57 | i | -6 | 97 | -0.7 | 0.95 | 1
Cn1nc(-c2ccc(OCC(=O)Nc3ccccc3)cc2)c2ccccc2c1=O
→ 146 | i | -16 | 106 | -3.0 | 0.76 | -3
O=C(NC(=S)N1CCN(Cc2ccc3c(c2)OCO3)CC1)c1ccc(Cl)cc1
→ · | i | · | 98 | -0.3 | 0.98 | -5
COCc1cc(Sc2ccc(Cl)cc2Cl)nc(-c2ccccc2)n1
→ 150 | i | 3 | 101 | -2.9 | 0.95 | 4
CCn1cc(C(=O)NCCCOC(C)C)c2cc(OC)c(OC)cc2c1=O
→ 122 | i | -26 | 95 | -0.1 | 0.88 | -7
O=C(NN1C(=O)C2C(C1=O)C1C=CC2C12CC2)c1cccc(Cl)c1 (configuration not stated)
→ · | i | · | 108 | · | 0.92 | 9
O=c1oc2c(Cl)cc(Cl)cc2cc1-c1nnc(Nc2ccccc2F)s1
→ · | · | · | 97 | -2.2 | · | -2
Cc1ccc(NC(=O)NC(=O)COc2ccc(Cl)cc2Cl)c(C)c1
→ · | i | · | 99 | -0.3 | 1 | -2
Cc1ccc(CS(=O)(=O)Cc2ccc(C(=O)NCCCN3CCOCC3)o2)cc1
→ 114 | i | -38 | 102 | -0.7 | 1.1 | 0
CN1CCN(C(=O)c2ccc3c(c2)NC(=O)C(C)(C)O3)CC1
→ 86 | i | 45 | 98 | -0.8 | 0.94 | -11
Cn1c(=S)n(CCC(=O)O)c2ccccc21
→ 147 | i | 11 | 103 | · | 0.97 | -1
Cc1cnc(NC(=O)CCN2C(=O)C3CCCCC3C2=O)s1 (configuration not stated)
→ · | i | · | 101 | · | 0.95 | -3
O=C(Cn1cnc2c(cnn2-c2ccc(Cl)cc2)c1=O)NCC1CCCO1 (configuration not stated)
→ · | i | · | 100 | -0.4 | 1 | -6
Cc1cc(C)c([N+](=O)[O-])cc1-c1ccc(/C=N/c2c(-c3ccco3)nc3ccccn23)o1
→ 78 | i | -14 | 95 | -1.3 | 1 | 1
O=C(NCCc1cccc(Cl)c1)c1cccs1
→ · | i | · | 103 | · | 0.97 | -4
Cc1ccc2c(c1)c1nc3ccccc3nc1n2CCN1CCOCC1
→ 114 | i | -6 | 102 | 0.5 | 0.82 | 1
CC(Oc1ccc(C(=O)NCCc2ccccc2)cc1)C(=O)O (configuration not stated)
→ 102 | i | 0 | 100 | -0.1 | 0.8 | -1
